VDR inhibitor: vitamin D3 receptor (human) inhibition. 400,000 tested, 0.93% active. VDR-SRC2-3 peptide fluorescence polarization, 2 h. P11473. Potency, µM, inactives show max response, negative = inhibition, actives largely listed as inhibitors; active = well fitted inhibition curve with a large enough effect; inconclusive = small, poorly fitted or top-dose-only effect, or another doubt; inactive = no such curve, though single readings can be large or run the other way; also: series mostly up to about 120 µM
Target sequence (P11473 whole entry, looked up): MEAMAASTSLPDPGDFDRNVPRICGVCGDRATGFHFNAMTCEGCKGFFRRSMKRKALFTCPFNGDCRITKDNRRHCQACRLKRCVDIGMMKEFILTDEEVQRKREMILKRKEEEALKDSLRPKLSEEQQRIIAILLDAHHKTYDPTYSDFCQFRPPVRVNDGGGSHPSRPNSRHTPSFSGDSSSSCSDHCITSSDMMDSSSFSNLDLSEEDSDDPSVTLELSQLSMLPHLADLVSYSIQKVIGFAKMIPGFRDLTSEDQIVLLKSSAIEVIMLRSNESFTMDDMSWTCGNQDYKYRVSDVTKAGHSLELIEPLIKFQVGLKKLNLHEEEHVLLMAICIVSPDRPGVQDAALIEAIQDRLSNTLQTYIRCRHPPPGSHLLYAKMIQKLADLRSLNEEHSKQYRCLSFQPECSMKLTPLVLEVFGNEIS
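The screen uses fluorescence polarization to detect compounds that interfere with recruitment of the SRC2-3 coactivator peptide to VDR; plates are read after 2 h at room temperature.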
Active calls of the source: *; ? = inconclusive. % is scaled to controls: 0 for no effect and ±100 for the full control effect; potency is read from the fitted curve at half-maximal effect. These rows are one share of the data; the hit share may differ from the screen's.

SMILES | VDR inhibitor
Cc1ccc(S(=O)(=O)NCC(=O)OCC(=O)Nc2cccc(S(=O)(=O)NC3=NCCCCC3)c2)cc1 | 1%
Nc1nnnn1/N=C/c1ccc(F)cc1 | -18%
Cc1cccc(-c2nc3ccccc3c(=O)n2NC(=O)c2ccc([N+](=O)[O-])c(C)c2)c1 | 4%
CC1CCN(C(=O)COC(=O)CSc2ccc(C(N)=O)cc2[N+](=O)[O-])CC1 | -7%
Cc1cccc(CN2CCN(Cc3ccco3)CC2)c1 | -1%
Cc1ccc(CN2C(=O)CCC2C(=O)NC2CC2)cc1 (stereo not drawn) | 12%
O=C(NC1=NCCS1)c1cc(-c2ccccc2)nn1-c1ccccc1 | 2%
Cc1ccc(S(=O)(=O)NC(=O)NCc2ccccc2)cc1 | -1%
COc1ccc(-n2c(O)c(/C=N/n3cnnc3)c3ccccc3c2=O)cc1 | 14%
CCN(CC)CC(=O)Nc1sc2c(c1C(=O)c1ccccc1C)CCC2 | -3%
CCN1CCN(Cc2ccc(NC(=O)c3ccc(C)c(NC(=O)c4nccn4C)c3)cc2C(F)(F)F)CC1 | -12%
CN(C(=O)c1ccc2ccccc2c1)c1ccccn1 | -6%
O=C(Nc1ccccc1O)c1cc(S(=O)(=O)N2CCOCC2)ccc1Cl | 5%
Cc1ccc(CNC(=O)CCC2CCCN(C(=O)CCC(F)(F)F)C2)o1 (stereo not drawn) | -3%
O=C(CCn1cccn1)NCc1ccc(Cl)cc1 | 14%
O=C(COC(=O)/C=C/c1ccco1)NCc1ccccc1 | 1%
CN(C)C1=NCCN1CCc1cccc(F)c1 | 0%
O=C(CN(C(=O)Cn1nnc(-c2ccc(F)cc2)n1)c1ccc(F)cc1)NC1CCCC1 | 20%
Cc1ccc(C)c(S(=O)(=O)N2CCCOC2CNC(=O)C(=O)NCc2cccnc2)c1 (stereo not drawn) | 9%
CCN(C(=O)c1ccccc1Cl)c1ccccc1 | -4%
NS(=O)(=O)c1ccc(NC(=S)N2CCCC2)cc1 | 7%
Cc1ccc2c(C)c(C(=O)NCCc3ccco3)oc2c1C | 2%
CC1(C)CC(=O)C2=C(C1)Nc1cc3c(cc1C2c1ccc(F)cc1)OCO3 (stereo not drawn) | ?
CN(Cc1nc2ccccc2c(=O)[nH]1)Cc1cc(=O)oc2ccc3ccccc3c12 | -7%
COCCSc1ccccc1C(=O)N1CCCC1 | 6%
C=CCN1C(=O)CS/C1=N\S(=O)(=O)c1ccc(Cl)cc1 | -5%
c1ccc(CNCCN2CCNCC2)nc1 | -12%
CCCCn1nnnc1SCC(=O)Nc1ccc2c(c1)OCCO2 | 1%
CNc1nnc(SCC(=O)N2c3ccccc3NC(=O)CC2C)s1 (stereo not drawn) | 15%
CCCn1nc(C(=O)NC2CCCCCC2)c2ccccc2c1=O | 5%
Cc1cc(C)n2cc(CSc3ccc(Cl)cc3)nc2n1 | -6%
CC(C)(C)c1n[nH]c2c1CCCC2 | -16%
CCn1c(=O)c2c(nc(SCC(=O)N3CCC(C)CC3)n2C)n(C)c1=O | 21%
CCCCc1ccc(NC(=O)CSc2nc(=O)n3cc(C)ccc3n2)cc1 | -6%
O=C1NC(=Nc2ccccc2)S/C1=C\c1cccnc1 | -9%
C[C@@H]1CN([C@@H](C)CO)C(=O)c2cccc(NC(=O)Nc3ccc4c(c3)OCO4)c2O[C@H]1CN(C)S(=O)(=O)c1cn(C)cn1 | -15%
CC(C)(C)NC(=O)C(c1ccco1)N(Cc1ccc2c(c1)OCO2)C(=O)c1snc(C(N)=O)c1N (stereo not drawn) | 9%
CCOC(=O)/C=C1\SCC(=O)N1Cc1ccc(Br)cc1 | -12%
COc1cc(CN(C)CC2CCCN(CCc3ccc(F)cc3)C2)c(Cl)cc1O (stereo not drawn) | -4%
CCn1cc(C(=O)N[C@@H](CCSC)C(=O)NCCN2CCOCC2)c(=O)c2cc3c(cc21)OCO3 | -7%
COc1ccc(NC(=O)c2cc([N+](=O)[O-])nn2Cc2ccccc2)c(C)c1 | -13%
CC(=O)c1ccc(C(=O)N(Cc2cccnc2)c2nc3c(Cl)cccc3s2)cc1 | 8%
COc1cccc(C(=O)OCC(=O)Nc2nnc(-c3ccccc3)o2)c1 | -9%
COc1ccc(N(C(=O)c2ccc(Br)o2)C2C=CS(=O)(=O)C2)c(OC)c1 (stereo not drawn) | -1%
COc1ccc(-c2[nH]ncc2CN(Cc2nccn2C)C(C)C)c(F)c1 | -3%
COc1ccc(/C=C/C(=O)Nc2ccccc2)cc1S(=O)(=O)N1CCOCC1 | 3%
COc1ccc(C(=O)NCc2nnc(SC)n2Cc2ccccc2)cc1 | -8%
O=C(NCCCN1CCN(c2cccc(Cl)c2)CC1)C1CCC(=O)N1Cc1ccccc1Cl (stereo not drawn) | 15%
Nc1c([N+](=O)[O-])cc(-c2cnc[nH]2)cc1[N+](=O)[O-] | 2%
CC1(C)C(=O)Nc2ccccc2N1C(=O)COC(=O)c1cccs1 | -12%
COc1ccc(NC(=O)N(C)C[C@H]2Oc3c(NS(=O)(=O)c4cccs4)cccc3C(=O)N([C@H](C)CO)C[C@@H]2C)cc1 | -7%
COc1ccccc1-n1c(SCC(=O)N2CCOCC2)nc(O)c(Cc2ccccc2)c1=O | 14%
CN(C)C(=O)c1c2c(nc3ccccc13)CCCC2 | 4%
O=C(O)CSc1nnc(COc2cccc3cccnc23)n1-c1ccc(Cl)cc1 | -25%
CCN1C(=O)N(c2cccc3ccccc23)C(C)=CC1(C)C | -16%
CCOc1cc(C(=O)OC(C(=O)NC(=O)NC)c2ccccc2)ccc1OCC(=O)N1CCOCC1 (stereo not drawn) | -9%
CCOC(=O)/C(C#N)=C/c1cn(CCC(=O)O)nc1-c1ccc(F)cc1 | 4%
CCOC(=O)C1CCN(C(=O)CCc2nnc3ccc(NCCCN4CCCC4=O)nn23)CC1 | 9%
Cc1ccc(NC(=S)N(Cc2ccc(Cl)cc2)Cc2ccc(C(=O)O)cc2)cc1Cl | -11%
O=C(NCCC1=CCCCC1)c1ccc2c(c1)N(Cc1ccc(Cl)cc1)C(=O)c1ccccc1S2(=O)=O | 4%

Following part.
SMILES | VDR inhibitor
CNC(=O)NC(=O)C(C)OC(=O)CCCSc1nc2ccccc2s1 (stereo not drawn) | -30%
COc1ccc2nc(Nc3nc(CSc4nc5ccccc5[nH]4)cc(=O)[nH]3)nc(C)c2c1 | -9%
CCOC(=O)/C(C#N)=C/c1c(OCC)n(CC)c2ccccc12 | -2%
CSc1nc2ccccc2n1CC(=O)Nc1c(C)n(C)n(-c2ccccc2)c1=O | -9%
CCOc1ccc(Nc2nc(N)nc(CN(C)C3CCCCC3)n2)cc1 | 1%
COc1ccc(/C=N/NC(=O)c2ccn[nH]2)cc1COc1ccc(Cl)cc1 | 10%
N#CCSc1nnc(-c2ccc3c(c2)OCO3)o1 | -3%
O=C(CN1CCN(S(=O)(=O)c2ccccc2)CC1)NCc1ccccc1 | 2%
Cc1onc(-c2ccccc2)c1C(=O)Nc1nc(-c2ccc(F)c(F)c2)cs1 | -14%
CC(C)(C)C1CCc2c(sc(NC(=O)C3CC=CCC3C(=O)O)c2C#N)C1 (stereo not drawn) | ?
Cc1ccc(-c2cc(-c3ccccc3)nc(N)c2C#N)o1 | 1%
O=C(CCCN1C(=O)NC2(CCCC2)C1=O)Nc1cccc(S(=O)(=O)N2CCOCC2)c1 | -6%
CC(NCCCOc1cccc2ccccc12)c1ccccc1 (stereo not drawn) | -16%
O=C(OCc1ccccc1)/C(=C/c1cccc([N+](=O)[O-])c1)NC(=O)c1ccco1 | 3%
CCC(C)N(C(=O)Cn1c(=O)cnc2ccccc21)C1CCS(=O)(=O)C1 (stereo not drawn) | -7%
Cc1cc2oc(=O)cc(CN(C)Cc3cccc(F)c3)c2cc1Cl | 6%
CCOC(=O)c1ccc(N/N=C/c2cc(Br)cc([N+](=O)[O-])c2O)cc1 | -23%
CCN1CCN(c2nc(S(=O)(=O)c3ccc(C)cc3)c(Cl)s2)CC1 | -29%
CCC(OC(=O)c1ccco1)C(=O)NC1CCCC1 (stereo not drawn) | -24%
CCC1(CC)NC(=O)N(CC(=O)Nc2ccc(S(=O)(=O)N3CCOCC3)cc2)C1=O | -16%
CC(C)C(C)NC(=O)CN1C(=O)NC2(CCCc3ccccc32)C1=O (stereo not drawn) | 8%
CC(C)NC(=O)CC1C(=O)NCCN1CC(c1ccccc1)c1ccccc1 (stereo not drawn) | 0%
CC(C)CN(C(=O)c1ccc(C(F)(F)F)cc1)c1c(N)n(CC(C)C)c(=O)[nH]c1=O | -18%
CCCCn1c(-c2cccc3ccccc23)nc2cc3[nH]c(=O)c(C(C)C)nc3cc21 | -25%
CCOc1ncccc1C(=O)OCc1ccc(C(=O)OC)o1 | 3%
COCC(C)NC(=O)c1cc2c(=O)n3cccc(C)c3nc2s1 (stereo not drawn) | -2%
O=C(NC1CCCC1)C1CCCN(S(=O)(=O)c2ccc(-n3cnnn3)cc2)C1 (stereo not drawn) | -3%
O=S(=O)(CCSc1ccc(C(F)(F)F)cn1)c1ccc(Cl)cc1 | -3%
CC(CCn1cccn1)NC(=O)c1cc(COc2ccc(F)cc2F)on1 (stereo not drawn) | 2%
COc1ccccc1CN1CC[C@@]2(CCCN(C(=O)c3cccn3C)C2)C1 | -4%

Part of the list above in another layout:
Molecule	VDR inhibitor
CCOc1ncccc1C(=O)OCc1ccc(C(=O)OC)o1	3%
COCC(C)NC(=O)c1cc2c(=O)n3cccc(C)c3nc2s1 (stereo not drawn)	-2%
O=C(NC1CCCC1)C1CCCN(S(=O)(=O)c2ccc(-n3cnnn3)cc2)C1 (stereo not drawn)	-3%
O=S(=O)(CCSc1ccc(C(F)(F)F)cn1)c1ccc(Cl)cc1	-3%
CC(CCn1cccn1)NC(=O)c1cc(COc2ccc(F)cc2F)on1 (stereo not drawn)	2%
COc1ccccc1CN1CC[C@@]2(CCCN(C(=O)c3cccn3C)C2)C1	-4%

(cont.)
SMILES | VDR inhibitor
Cc1ccc(CNC(=O)Cn2ccc3ccccc3c2=O)o1 | -7%
Cc1ccc(Cn2c(C(C)Nc3nc(-c4ccc(F)cc4)cs3)nc3cc(C(=O)NCCCO)ccc32)cc1 (stereo not drawn) | -20%
CCCc1cc(=O)[nH]c(Nc2ccc(O)cc2)n1 | 1%
CCOC(=O)C(C(C)=O)c1c(Br)c(O)c(O)c2c(C(=O)c3ccc(C)cc3)coc12 (stereo not drawn) | -4%
O=C(O)c1ccc(/C=C2\SC(=S)N(NC(=O)c3ccc(Br)cc3)C2=O)cc1 | ?
O=S(=O)(Nc1ccc(Br)cn1)c1ccc(Cl)s1 | -2%
COc1cc(CNCCSc2nnnn2C)cc(Br)c1OCc1ccccc1 | -4%
Cc1ccc(-c2nnn(CCC(=O)NC(C)(C)C)n2)cc1 | 5%
CC1CC(C)CN(c2oc(-c3ccc(OCc4ccccc4Cl)cc3)nc2C#N)C1 (stereo not drawn) | -11%
NC(=O)c1cccc2c(=O)oc3ccccc3c12 | 2%
Nn1c(SCC(=O)Nc2ccc(Oc3ccccc3)cc2)nnc1C1CC1 | 2%
N#CCn1c2ccccc2c2nc3ccccc3nc21 | -3%
CSc1nc(-c2ccccc2)[nH]c(=S)c1C(C)=O | -2%
Fc1ccc(-c2cc(-c3ccccc3)c3c(n2)-c2ccccc2OC3)cc1 | -2%
CC12CCC(C/C1=N\OC(=O)c1c(F)cccc1F)C2(C)C (stereo not drawn) | -5%

Quoted at random: seven compounds from above.
SMILES | VDR inhibitor
CC1CC(C)CN(c2oc(-c3ccc(OCc4ccccc4Cl)cc3)nc2C#N)C1 (stereo not drawn) | -11%
Cc1ccc(CNC(=O)Cn2ccc3ccccc3c2=O)o1 | -7%
NC(=O)c1cccc2c(=O)oc3ccccc3c12 | 2%
O=C(O)c1ccc(/C=C2\SC(=S)N(NC(=O)c3ccc(Br)cc3)C2=O)cc1 | ?
O=S(=O)(Nc1ccc(Br)cn1)c1ccc(Cl)s1 | -2%
CCCc1cc(=O)[nH]c(Nc2ccc(O)cc2)n1 | 1%
Fc1ccc(-c2cc(-c3ccccc3)c3c(n2)-c2ccccc2OC3)cc1 | -2%

(continued)
SMILES | VDR inhibitor
CCOC(=O)C1C(c2ccc(O)c(OCC)c2)NC(=S)NC1(O)C(F)(F)F (stereo not drawn) | 1%
Cc1cc2oc3ccc(NCCCN4CCOCC4)cc3c(=O)c2cc1C | -8%
CC(C)NC(=O)CN1CCN(C(=O)CCl)CC1 | -6%
Cc1cc(C)n(CC(O)Cn2c3ccccc3c3ccccc32)n1 (stereo not drawn) | 2%
Cc1n[nH]c(=S)n(/N=C/c2ccccn2)c1=O | -14%
Cc1ccccc1OCC(=O)NCCC1=CCCCC1 | -4%
CCOC(=O)N1CCC(N2Cc3cccc(C(=O)N4CCN(C5CCCCC5)CC4)c3C2=O)CC1 | -2%
COC(=O)c1ccc(CN2CCc3ccc(NC(=O)c4ccncc4)cc3C2)cc1 | 6%
COc1ccc(CN(C#N)c2nc(SC)nc(N(C)C)n2)cc1 | 5%
O=C(NCCc1ccccc1)c1ccccc1Cl | 11%
CCC(c1nnc(SCC(=O)N(C)c2ccccc2)n1Cc1ccccc1)N(C)C (stereo not drawn) | -6%
CCOc1ccc(CCNC(=O)c2cnc3c(-c4ccccc4)c(C)nn3c2C)cc1OCC | -1%
Cc1ccc(NC(=O)CSc2n[nH]c(=O)n2C2CC2)cc1S(=O)(=O)N1CCOCC1 | -4%
Cc1ccc(OCC(=O)NNC(=S)NC(=O)C2CCCCC2)c(C)c1 | 8%
O=C(OCCN1C(=O)c2ccccc2C1=O)Oc1ccccc1 | 5%
CC(=O)NCC(=O)N(Cc1ccco1)C1(C(=O)NC2CCCC2)CCCCC1 | -8%
Cc1[nH]n(-c2ccc(Br)cc2)c(=O)c1C=Nc1ccc(S(=O)(=O)Nc2nccs2)cc1 | 9%
Cc1cc2nnc(SCC(=O)N3CCCCCC3)n2c(N)n1 | 9%
Cc1cccc(CSc2nc3c(c(=O)[nH]2)C(c2cccc(O)c2)CC(=O)N3)c1 (stereo not drawn) | 13%

Assay outcomes as filed in PubChem BioAssay.
